Compound activity deposited in PubChem BioAssay by SRMLSC.
H5N1 CPE = antiviral screen in MDCK cells, H5N1 avian flu; cytopathic effect, luminescence, 72 h; active compounds read high; no value below 0 was filed and about half of the inactive calls have no number; reference of the scale not given here; inhibition, % at 50 µM; 96,000 compounds, 0.07% hits; in the data active means inhibition above about 25%
* = called active by the depositor; i = inactive.

| Molecule | H5N1 CPE |
| --- | --- |
| CN(Cc1ccccc1)c1nc2c(c(=O)[nH]c(=O)n2C)n1CCSc1nc2ccccc2[nH]1 | 1.1 |
| COc1cccc(CNC(=O)Cn2c(=O)oc3ccccc32)c1OC | 1.4 |
| CSc1nc2ccccc2cc1/C=C(\C#N)c1cccc(C)c1 | i |
| N#Cc1nc(COc2cccc(Cl)c2)oc1N1CCCC1 | i |
| Cc1cccc(S(=O)(=O)c2c(N)n(/N=C/c3ccco3)c3nc4ccccc4nc23)c1 | i |
| CCOC(=O)C1=C(N)N2C(=O)CSC2=C(C(=O)OC)C1 | i |
| Cc1cc(C)cc(NC(=S)NCC2CCCO2)c1 (stereo unspecified) | i |
| CNC(=S)N1N=C(c2ccc(C)cc2)CC1c1ccc(OC)cc1 (stereo unspecified) | 1.9 |
| CCc1ccc(C(=O)COc2ccc(NC(C)=O)cc2)cc1 | 1.0 |
| CC(=O)Nc1ccc(C(=O)CSc2nnc(-c3ccc(O)cc3)n2CC2CCCO2)cc1 (stereo unspecified) | 0.3 |
| Cc1ccc(/C=C/c2nnc(-c3ccc(C)cc3)o2)cc1 | i |
| COc1ccc(CNc2nc3c(c(=O)[nH]c(=O)n3C)n2CCCc2ccccc2)cc1 | 0.1 |
| CC(=O)Nc1cccc(-c2cnc3ccccc3n2)c1 | i |
| CCOC(=O)Cn1c(=O)oc2cc(S(=O)(=O)NC3CCCc4ccccc43)ccc21 (stereo unspecified) | 1.2 |
| Cc1cc(C(=O)N2CCN(c3ccccn3)CC2)c(C)o1 | i |
| COCC(=O)Nc1cc(OC)cc(OC)c1 | i |
| CN(C)CP(=O)(Nc1ccccc1)N(C)C (stereo unspecified) | 0.7 |
| O=C(CCNS(=O)(=O)c1cccc2nsnc12)NCCc1ccccc1 | 0.9 |
| c1ccc(Nc2c3c(nc4ncnn24)CCC3)cc1 | 1.6 |
| CC(SC1CCCC1)C(=O)NC(C)(C#N)C(C)C (stereo unspecified) | i |
| Cc1c(Cl)cccc1Nc1nc(N)nc(CN2CCCCCC2)n1 | i |
| C=CCc1cccc(CNc2nc3ccccc3n2C(C)C)c1O | i |
| O=C(O)Cn1nnnc1SCC(=O)Nc1ccc(OC(F)(F)F)cc1 | i |
| CC(=O)N1CCc2cc(Br)cc(S(=O)(=O)NCCCN3CCC(C)CC3)c21 | i |
| CCOC(=O)c1cc2sc(C)cc2n1CC(=O)NCc1ccc(F)cc1 | i |
| CCCC(=O)Nc1c2c(nn1-c1ccc(OC)cc1)CS(=O)(=O)C2 | 1.3 |
| CCOC(=O)C1CCCN(C/C=C/c2ccccc2[N+](=O)[O-])C1 (stereo unspecified) | 0.0 |
| C(=N\Nc1nc2ccccc2[nH]1)/c1cccs1 | 1.9 |
| COC(=O)C(O)(c1ccc(NC(=O)c2ccco2)c(OC)c1)C(F)(F)F (stereo unspecified) | 0.7 |
| CN(C(=O)c1c(Cl)nc2sccn12)C1CCCCC1 | 12 |
| Cc1csc(SCC(=O)Nc2cccc3nsnc23)n1 | i |
| CCc1ccc(-c2cc(C(=O)Nc3ccc(S(=O)(=O)NC(C)=O)cc3)c3ccccc3n2)cc1 | i |
| CCCC1(C(=O)O)NC(c2ccc(OC)cc2O)C2C(=O)N(c3ccc(OC)cc3)C(=O)C21 (stereo unspecified) | 0.2 |
| CC(C)CC(NS(=O)(=O)c1ccccc1)C(=O)O (stereo unspecified) | i |
| COCCNC(=O)C(c1ccc(C)o1)N(CC1CCCO1)C(=O)Cn1nnc2ccccc21 (stereo unspecified) | i |
| O=C(Nc1ccccc1N(C(=O)c1ccco1)S(=O)(=O)c1cccs1)c1ccco1 | i |
| COc1ccc(C2OCC3(CO2)SC(N)=NC3=O)cc1 (stereo unspecified) | i |
| CCOC(=O)N1CCN(S(=O)(=O)c2ccc3c(c2)SC(C)C(=O)N3)CC1 (stereo unspecified) | 3.5 |
| CCOC(=O)Cn1c(-c2ccc(Cl)nc2)nc2ccccc21 | i |
| CCOc1cc(NC(=S)Nc2cccc(OC)c2)c(OCC)cc1NC(=O)C(C)C | i |
| CN(C)S(=O)(=O)c1ccc(C(=O)NCc2cccs2)cc1 | 0.7 |
| COc1ccc(S(=O)(=O)n2c(CCN3CCOCC3)nc3ccccc32)cc1 | i |
| COc1cc2c(cc1OC)/C(=C/C(=O)N1CCOCC1)NC(C)(C)C2 | 0.8 |
| Cc1ccc(NC(=O)NC2C(NC(=O)Nc3ccc(C)cc3)N(C)C(=O)N2C)cc1 (stereo unspecified) | 0.5 |
| CCCCOC(=O)n1c(=O)oc2cc(S(=O)(=O)N3CCCCC3)ccc21 | i |
| O=C(NCc1ccco1)c1ccccc1Br | 1.5 |
| COc1cc(OC)c(NS(=O)(=O)c2coc(C(N)=O)c2)cc1Cl | i |
| CN(C)CC(C)(C)CNS(=O)(=O)CC12CCC(CC1=O)C2(C)C (stereo unspecified) | 1.7 |
| CC1CCN(c2c(NCc3ccc(C(=O)NCc4cccnc4)cc3)c(=O)c2=O)CC1 | 1.0 |
| CC1(C)Cc2ccccc2C(=NCCCC(=O)O)N1 | i |
| CCOC(=O)C1CCCN(c2cc(C)nc3cc(-c4ccc(F)cc4)nn23)C1 (stereo unspecified) | 0.8 |
| CC(C)C(=O)Nc1ncc(C(F)(F)F)cc1Cl | 0.2 |
| CCOC(=O)C1=C(c2ccccc2)NC(=O)NC1c1ccc(OCC#N)c(OC)c1 (stereo unspecified) | 0.2 |
| COc1ccc(-c2sccc2C(C)C(=O)O)cc1 (stereo unspecified) | 0.4 |
| CS(=O)(=O)Nc1ccc(C(=O)NCCC2=CCCCC2)cc1 | i |
| O=C(CSc1nnc(COc2ccccc2)o1)c1ccccc1 | i |
| CCOc1c2ccc(C(=O)NCc3ccc(C(F)(F)F)cc3C(F)(F)F)cc2nn1C | i |
| N#Cc1c(NC(=O)CN2CCN(S(=O)(=O)c3ccc4c(c3)OCCO4)CC2)sc2c1CCC2 | 1.1 |
| O=S(=O)(NC1CCCCC1)c1ccc(-c2csnn2)s1 | i |
| Cc1cc(NC(=O)c2cc(-c3cccs3)nc3ccccc23)no1 | i |

Entries from the list above that have fluorine, in the order listed:
| Molecule | H5N1 CPE |
| --- | --- |
| O=C(O)Cn1nnnc1SCC(=O)Nc1ccc(OC(F)(F)F)cc1 | i |
| CCOC(=O)c1cc2sc(C)cc2n1CC(=O)NCc1ccc(F)cc1 | i |
| COC(=O)C(O)(c1ccc(NC(=O)c2ccco2)c(OC)c1)C(F)(F)F (stereo unspecified) | 0.7 |
| CCOC(=O)C1CCCN(c2cc(C)nc3cc(-c4ccc(F)cc4)nn23)C1 (stereo unspecified) | 0.8 |
| CC(C)C(=O)Nc1ncc(C(F)(F)F)cc1Cl | 0.2 |
| CCOc1c2ccc(C(=O)NCc3ccc(C(F)(F)F)cc3C(F)(F)F)cc2nn1C | i |

New compounds follow:
| Molecule | H5N1 CPE |
| --- | --- |
| CCn1nnc(C(=O)O)c1C(=O)O | 1.6 |
| COc1ccc(-c2cc(C(F)(F)F)nc(SCC(=O)NCc3cccs3)n2)cc1 | 1.8 |
| COc1ccc(Cn2nnnc2C(c2cccs2)N2CCN(c3ccccc3)CC2)cc1 (stereo unspecified) | i |
| COc1cc(S(=O)(=O)N2CCCCC2)ccc1NC(=O)/C=C/c1ccccc1 | 0.7 |
| O=S(=O)(c1ccc(F)cc1)N1CCN(c2nc(-c3ccc(F)cc3)cs2)CC1 | 2.1 |
| COc1ccccc1NC(=S)NNC(=O)c1cc(C)nn1C | 0.1 |
| Cc1ccc(C)c(S(=O)(=O)Nc2ccccc2C(=O)Nc2ccccc2N2CCOCC2)c1 | i |
| CCOc1cc(N2CCOCC2)c(OCC)cc1NC(=O)COC(=O)[C@H](Cc1c[nH]c2ccccc12)NC(C)=O | i |
| COC(=O)C(N)Cc1ccc(O)c(O)c1 (stereo unspecified) | 1.3 |
| COc1ccc2c(c1)-c1ccccc1S(=O)(=O)N2C | 0.9 |
| O=C(Cn1c(-c2cscn2)nc2ccccc21)Nc1cc(F)ccc1F | i |
| N#CC1=C(SCC(N)=O)NC2=C(C(=O)c3ccccc32)C1c1ccc(Cl)cc1 (stereo unspecified) | i |
| COc1cccc(N/C=C(\C#N)c2ccc(OCCCF)cc2)c1 | 0.1 |
| CCCCCCN1CC(O)=C(c2ccccc2)C1=N | i |
| CCC(=O)N1CCc2cc(S(=O)(=O)NC(C(=O)N3CCc4ccccc4C3)C(C)C)ccc21 (stereo unspecified) | 0.1 |
| C=CCNC(=O)CN1CCC(O)(c2ccccc2)CC1 | 0.4 |
| O=C(COc1ccc(F)cc1Br)NCc1ccccn1 | 1.3 |
| CC(C)=CC(=O)Nc1ccc2c(c1)OCO2 | 0.2 |
| Cc1cccc(OCCOCCSc2ncccn2)c1 | 0.8 |
| N#CCCN1CCN(C(CNS(=O)(=O)c2ccc(Cl)cc2)c2ccccc2)CC1 (stereo unspecified) | i |
| CC(C)CCNc1nnnc2c1sc1nc(N3CCOCC3)c3c(c12)CC(C)(C)SC3 | 2.2 |
| Cc1ccc(N2CC3=C(C2=O)C(c2ccccc2)NC(=O)N3C)cc1 (stereo unspecified) | i |
| CC(C)(C)NC(=O)c1cnn(-c2ccccc2)c1NC(=O)c1ccccc1 | 1.3 |
| COCCCN1C(=O)C(O)=C(C(=O)c2ccco2)C1c1ccc(Br)cc1 (stereo unspecified) | i |
| Cc1cc(C)nc(-n2nc(C)cc2NC(=O)COC(=O)CCC(=O)c2cccs2)n1 | i |
| O=C(COC(=O)c1cccnc1Nc1ccccc1F)NCc1ccc2c(c1)OCO2 | 0.5 |
| O=C(c1ccco1)N1CCN(C(=O)C2Cc3ccccc3CN2S(=O)(=O)c2ccc(F)cc2)CC1 (stereo unspecified) | i |
| O=C(CN1C(=O)c2cccc3cccc1c23)N1CCc2ccccc2C1 | 1.7 |
| C1CCc2c(nc3nnnn3c2NC2CCCC2)C1 | i |
| Cc1[nH]c2c(ccc3ccccc32)c1C1C(CCN)C1(C)C (stereo unspecified) | i |
| O=C(Nc1ccccc1)c1c(F)cccc1F | i |
| CC(NC(=O)Cn1cnnn1)C12CC3CC(CC(C3)C1)C2 (stereo unspecified) | i |
| O=C(CSc1nnc2c(Cl)cc(Cl)cn12)NC1CCS(=O)(=O)C1 (stereo unspecified) | i |
| COc1ccc(CCNC(=O)c2cc(-c3cccs3)on2)cc1OC | i |
| CN1CCN(CCCCOc2ccc(F)cc2)CC1 | i |
| Cc1cccc(NC(=O)NCCN2C(=O)C3C4C=CC(C4)C3C2=O)c1 (stereo unspecified) | 0.3 |
| O=C(NCSc1ccncn1)c1ccccc1 | 0.2 |
| CCN(CC)CCCN1C(=O)C(O)=C(C(=O)c2cc3ccccc3o2)C1c1ccccn1 (stereo unspecified) | 0.9 |
| Cc1ccccc1-c1nc2cc(N)ccc2o1 | i |
| CCn1c(C)csc1=NC(=O)c1ccccc1O | 0.1 |
| Nc1nc(CSc2nc3ccccc3[nH]2)nc(N2CCOCC2)n1 | i |
| COCCOc1cc(Nc2nnc(C(F)(F)F)s2)c(Cl)cc1Cl | 0.1 |
| Cc1cccc(NS(=O)(=O)c2cccs2)n1 | 1.0 |
| O=C(COC(=O)c1n[nH]c2ccccc12)NC(=O)NCc1ccco1 | i |
| CCCCOC(=O)Cn1c(=N)n(CCC)c2ccccc21 | i |
| COc1ccccc1C(=O)Nc1nc(-c2ccc(S(=O)(=O)N3CCOCC3)cc2)cs1 | 5.7 |
| C#CC(C)(CC)NC(=O)c1cc(OC)c(OC)c(OC)c1 (stereo unspecified) | 0.1 |
| O=C1c2cccc3cc(Br)cc(c23)C(=O)N1Nc1ccccc1 | i |
| CSc1nc(NCc2ccccc2)c2c3c(sc2n1)CN(C)CC3 | 0.9 |
| Cc1cc(S(=O)(=O)N(Cc2ccc(C(C)C)cc2)CC2CCCO2)ccc1-n1cnnn1 (stereo unspecified) | 0.2 |
| Cc1ccc(O)c(NC(=O)c2cccc(NC(=O)c3ccco3)c2)c1 | i |
| Cc1ccc2nc(NC(=O)C3CCN(S(=O)(=O)c4cccnc4)CC3)sc2c1 | i |
| O=C(NCCCN1CCOCC1)c1cc(-c2cccs2)on1 | i |
| CCOc1cc2[nH]c(=S)n(CCC(=O)N3CCc4ccccc4C3)c(=O)c2cc1OCC | i |
| CC(=O)Nc1ccc(S(=O)(=O)CCC#N)cc1 | i |
| Cc1cc(OCC(=O)N(C)C)c2c(-c3ccccc3)cc(=O)oc2c1 | 2.6 |
| COc1cc2c(C(=O)NCc3ccccn3)cn(CC(C)C)c(=O)c2cc1OC | 1.2 |
| CCCSc1nc(C)cc(=O)[nH]1 | i |
| O=C(CSc1ncn[nH]1)N1N=C2/C(=C/c3ccco3)CCCC2C1c1ccco1 (stereo unspecified) | 9.6 |
| CCN(CC)S(=O)(=O)c1cccc(C(=O)OCc2cc(=O)n3nc(C)sc3n2)c1 | 1.4 |

The results go on.
| Molecule | H5N1 CPE |
| --- | --- |
| CCCc1nc2ccccc2[nH]1 | i |
| CCC(c1nnnn1Cc1ccco1)N(Cc1cc2cc(C)cc(C)c2[nH]c1=O)CC1CCCO1 (stereo unspecified) | i |
| CCc1ccc(OCC(=O)Nc2ccc(-c3nc4ccccc4o3)c(O)c2)cc1 | 0.3 |
| COc1ccc2cc(S(=O)(=O)N3CCOCC3)ccc2c1 | 1.7 |
| CC(=O)Nc1cccc(NC(=O)c2ccco2)c1 | 0.7 |
| NC1CCCCC1N=Cc1c(O)n(Cc2ccc(F)cc2)c(=O)[nH]c1=O (stereo unspecified) | i |
| CC(=O)C1=C(C)Nc2ncnn2C1c1ccccc1Cl (stereo unspecified) | 0.6 |
| CC1(C)CC(=O)c2c(noc2-c2ccccc2)C1 | 3.0 |
| COCCCNC(=O)c1cc2c(s1)CS(=O)(=O)C2 | 0.1 |
| CCOC(=O)c1c(C)nc2sc(C(=O)Nc3ccc(C(C)=O)cc3)c(N)c2c1-c1ccc(OC)cc1 | i |
| COc1ccc(C2CC(c3ccco3)n3ncnc3N2)cc1 (stereo unspecified) | i |
| COCCNC(=O)c1ccc(NC(C)=O)cc1 | 0.1 |
| Cc1cc(C)c2c(-n3cccc3)n[nH]c2n1 | 1.9 |

4 entries from above, field by field.
Cc1ccc(NC(=O)NC2C(NC(=O)Nc3ccc(C)cc3)N(C)C(=O)N2C)cc1 (stereo unspecified)
  H5N1 CPE: 0.5

CCCCOC(=O)n1c(=O)oc2cc(S(=O)(=O)N3CCCCC3)ccc21
  H5N1 CPE: i

O=C(NCc1ccco1)c1ccccc1Br
  H5N1 CPE: 1.5

COc1cc(OC)c(NS(=O)(=O)c2coc(C(N)=O)c2)cc1Cl
  H5N1 CPE: i

These rows are one share of the data. The share of hits here may be higher or lower than overall.
